Source: PubChem
miR-21 FLuc: miR-21 reporter, rising signal. 340,000 tested, under 10 active. AID 2288. HeLa miR-21 FLuc reporter, luciferase, 48 h. Potency, µM (doses to about 38.3 µM), without a hit: at the top dose reporter change, positive = more light; active = well fitted rising curve with a large enough effect; inconclusive = small, poorly fitted or top-dose-only effect; inactive = no such curve, though single readings can be large or run the other way;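 further: % of control where 0% means no effect; miR-21 action dims this reporter so a rising signal means less miR-21 action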
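Using DMEM plus 10% FBS, HeLa miR-21-FLuc cells are incubated with test compounds (final up to about 40uM) for 48 hours; firefly luciferase signal is then imaged following reagent-mediated lysis.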
Rango-impB inh: inhibitors of Rango-importin beta complex formation. Q14974. 0.031% of 340,000 active. Rango CFP/YFP FRET sensor + importin beta, 45 min. AID 540263. Potency, µM (series often up to 92.2 µM), without a hit: at the top dose inhibition of complex formation; active = rising FRET ratio curve, often small or poorly fitted; inconclusive = mostly compound fluorescence or quenching in the first reads; inactive = flat curves in all reads;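 further: potency means the concentration at half of the fitted maximal effect; 0% = DMSO wells and 100% = buffer wells lacking importin beta; nearly all actives have a fitted effect of over 15% in size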
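FRET biosensor Rango (snurportin 1 IBB between N-terminal EYFP and C-terminal Cerulean), 50 nM in PBS/1 mM DTT/0.02% Tween-20/0.1% BSA, preincubated 5 min RT with compound; 0.125 microM importin beta added, 45 min RT, CFP/YFP FRET ratio read.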
GLA inh pH 4.5: inhibitors of human alpha-galactosidase A at pH 4.5; purified enzyme, 4-MU-alpha-Gal fluorescence, pH 4.5; P06280; activity change, negative = inhibition, % at 105 µM; 230,000 tested, under 10 active; inconclusive = small, poorly fitted or top-dose-only inhibition, or a rising curve; inactive = flat fitted curve, though single readings scatter; no compound was filed as active;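 further: 0% = full activity with enzyme and -100% = basal without enzyme; dose as in the result columns while the protocol names 77 µM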
Target sequence (P06280 whole entry, looked up): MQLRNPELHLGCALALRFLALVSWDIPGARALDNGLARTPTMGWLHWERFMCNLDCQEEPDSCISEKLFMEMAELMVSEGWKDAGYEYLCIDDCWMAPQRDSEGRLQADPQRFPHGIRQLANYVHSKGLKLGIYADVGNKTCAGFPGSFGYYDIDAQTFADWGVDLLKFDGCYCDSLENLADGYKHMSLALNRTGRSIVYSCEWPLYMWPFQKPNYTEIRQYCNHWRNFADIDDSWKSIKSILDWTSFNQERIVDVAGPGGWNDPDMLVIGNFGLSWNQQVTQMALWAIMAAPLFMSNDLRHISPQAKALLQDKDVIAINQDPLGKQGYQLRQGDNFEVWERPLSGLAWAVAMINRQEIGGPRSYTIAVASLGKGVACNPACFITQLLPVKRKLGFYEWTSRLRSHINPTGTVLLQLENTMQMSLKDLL
Rango release inh: inhibition of RanGTP-driven Rango-importin beta dissociation; O95149+P62826; Biochemical FRET Rango-importin beta, RanGTP-induced dissociation; Potency, µM (titrated, usually from 46.1 µM), for inactives: at the top dose activity change, negative = inhibition; 0.071% of 340,000 active; active means falling FRET ratio curve, often poorly fitted, with flat reads before Ran was added; inconclusive means other falling curves, or compound fluorescence or quenching; inactive means flat or rising ratio curve;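 further: potency means the concentration at half of the fitted maximal effect; % of control where 0% means no effect; nearly all actives have a fitted effect of over 45% in size; -100% = wells without RanGTP and RCC1; the record marks most hits as doubtful in a second field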
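Two FRET readings bracket the reaction: one 5 min after compound meets Rango–importin beta, another 45 min after RanGTP-RCC1 (0.6 uM Ran, 0.2 uM RCC1, 2 mM GTP) is added. Only the second defines inhibition.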
* hit, by the source's call; ? = inconclusive; . = not tested or not shown; & = joins results of further samples; [ ] = another dose, or the depositor's remark. These rows are one share of the data; the hit share may differ from the screen's.

SMILES	miR-21 FLuc	Rango-impB inh	GLA inh pH 4.5	Rango release inh
O=C1C=C(/C=C/C2C=CC=CC2)C[C@@H](c2ccc(Cl)cc2)C1 (some centres undefined)	.	4.2%	.	-14.8%
COc1ccc(Cc2nnc(SCC(=O)N(c3ccccc3)C(C)C)n(N)c2=O)cc1	.	6.8%	.	11.3%
CCOC(CNC(=O)c1ccc2c(c1)nc(C)n2-c1cccc(F)c1)OCC	-2.2%	0.2%	7.6	-1.9%
Cc1nc2oc3ccccc3c(=O)c2c(=O)n1Cc1ccccc1	-3.8%	-2.6%	-11.1	0.1%
O=C(CN1c2cccc3cccc(c23)S1(=O)=O)Nc1ccc(S(=O)(=O)N2CCOCC2)cc1	-10.4%	-1.2%	0.7	-8.4%
O=C(c1ccccc1)c1ccc(C(=O)N2CCN(c3ccccc3)CC2)cc1	-6.3%	-0.5%	.	17.7%
COc1cc(OC)c(-c2nc3c[n+](CC(=O)c4ccccc4)ccc3n2C)cc1OC	-1.7%	-2.2%	3.9	23.3%
C=CC[C@@H](CC(=O)NCCO)C(=O)N[C@@H](C)COC(=O)[C@H](CC=C)CC(=O)OC(C)(C)C	.	-0.1%	.	-10.0%
COc1ccc2c(CC(=O)NC(Cc3ccc(Cl)cc3)C(=O)O)cc(=O)oc2c1C (centres undefined)	-0.7%	1.6%	.	-0.6%
COc1ccc(CCNC(=O)CN(c2ccccc2OC)S(=O)(=O)c2ccc(C)cc2)cc1	27.4%&27.6%	-2.0%	.	1.6%
CC(=O)Nc1ccc(S(=O)(=O)N(C)CC(=O)OCC(=O)NC(C)C23CC4CC(CC(C4)C2)C3)cc1 (centres undefined)	-25.6%	-1.2%	-1.7	-2.3%
CNC(=O)c1ccc(-n2cccn2)nc1	1.0%	2.0%	2.0	19.9%
CCN(CC)S(=O)(=O)c1ccc(N2CCOCC2)c(NC(=O)COc2ccc(OC)cc2)c1	.	3.4%	.	-7.5%
CCOC(=O)/C=C(C)\C=C\c1c[nH]c2ccccc12	-23.1%	6.4%	-2.7	11.7%
C/C=C(\C)C(=O)Nc1cccc(C2=NOC3(C2)C[C@H](C(N)=O)N(C(=O)c2cc([N+](=O)[O-])cc([N+](=O)[O-])c2)C3)c1 (some centres undefined)	3.3%	-0.7%	-4.9	-4.7%
COc1cc(C2Nc3cccc4cccc(c34)N2)cc(OC)c1OC(C)=O	-0.1%	-1.7%	3.6	0.1%
Cc1cccn2c(=O)c3cc(C(=O)NCCN4CCOCC4)c(=N)n(CCCN4CCOCC4)c3nc12	-1.3%	?	.	?
COc1ccc(OC)c(-n2c(SCC(=O)Nc3cccc(S(N)(=O)=O)c3)nc3ccccc3c2=O)c1	7.1%	5.0%	?	-5.5%
N#CCOc1nc(N2CCCCC2)nc(N2CCCCC2)n1	-1.6%	1.2%	-2.1	-6.4%
COc1ccc(CC(=O)Nc2ccc(-c3ccc4nnc(C)n4n3)cc2)cc1OC	0.4%	0.0%	-25.0	-5.8%
O=C(O)/C(=C\c1ccccc1OC(F)F)Sc1nnc(-c2ccc(F)cc2)o1	0.2%	3.9%	-31.5	-12.9%
CC(NC(=O)CCC(=O)Nc1ccccc1O)c1ccccc1 (centres undefined)	.	2.5%	.	9.7%
COc1ccc2ccccc2c1/C=N/NC(=O)c1cccc([N+](=O)[O-])c1	0.8%	3.7%	.	5.9%
CCOC(=O)[C@@H]1[C@H]2COc3ccc(Br)cc3[C@H]2N2C(=O)N(c3ccc(C)cc3)C(=O)[C@]12C	6.0%	-0.5%	.	-14.1%
O=C(O)c1cnn2c(C(F)(F)F)cc(-c3ccco3)nc12	-0.4%	?	2.9	?
CCCN(CCC)CC(O)COc1ccc([N+](=O)[O-])cc1 (centres undefined)	-2.7%	-4.1%	-5.9	2.8%
CN(C1CCCCC1)S(=O)(=O)c1ccc2c(c1)c(=O)c(C(=O)NCCCN1CCCC1)cn2C	-3.0%	10.2%	-2.0	-0.2%
CCOC(=O)c1c(Cc2ccc(Cl)cc2)c[nH]c1C	-54.0%	11.9%	-1.5	-6.3%
N#Cc1c(-c2ccccc2)cc(-c2ccccc2)nc1SCC(=O)NCC(=O)O	-6.7%	-0.6%	-14.5	-6.3%
COc1ccccc1N1CCN(C2=Nc3cccc4cccc2c34)CC1	6.9%	?	-4.7	1.5%
COCCCNC(=S)N/N=C/c1cccc(OC)c1O	-20.7%	?	3.9	-25.2%
CCc1ccc(NS(=O)(=O)c2ccc3oc(=O)ccc3c2)cc1	6.9%	-1.5%	.	5.5%
COC(=O)c1ccccc1NS(=O)(=O)c1ccc(Cl)nc1	-3.6%	0.5%	-2.1	2.0%
Cc1ccc(-n2c(SCC(=O)N3CCCCC3)nc(O)cc2=O)cc1	-3.7%	-3.0%	0.9	-16.9%
O=C(Cn1nnc2ccccc21)C1CC1	-7.3%	-1.5%	-4.7	16.0%
CC(=O)Nc1cc2c(cc1[N+](=O)[O-])OCCO2	0.8%	0.1%	1.8[21.1 µM]	-1.4%
CC(C)C[C@@H](CNCC(=O)[C@H](CC(C)C)NC(=O)c1[nH]cnc1C(=O)N[C@@H](C)CN)NC(=O)c1nc[nH]c1C(=O)N[C@@H](Cc1ccccc1)C(=O)O	.	-0.8%	.	22.8%
COc1cc(NC(=O)c2cccnc2SC)cc(OC)c1OC	-0.7%	-0.3%	0.4	-12.5%
O=C(CN1CCC(O)(c2ccc3c(c2)OCO3)CC1)NC1CCCCC1	-0.9%	?	0.0	3.1%
CCc1nnc(NC(=O)CSc2nc3c([nH]c4ccccc43)c(=O)n2CCOC)s1	2.7%	3.5%	.	0.4%
COc1cc(C(=O)NNC(=O)Cc2ccc(S(=O)(=O)N3CCOCC3)s2)cc(OC)c1OC	9.4%	1.6%	.	0.4%
CCOc1ccc(/C=C2/Sc3ccc(C(=O)NCC4CCCO4)cc3N(C)C2=O)cc1OC (centres undefined)	-6.3%	-3.2%	.	22.8%
CC(C)NS(=O)(=O)c1ccc(OCC(=O)N2CCCC2)cc1	-6.8%	2.3%	-0.4	-13.9%
Cc1cc(C)nc(-n2nc(C)cc2NC(=O)CNC2CCCCC2)n1	-8.5%	0.5%	-3.2	13.6%
O=C(Cc1ccccc1)Nn1cnc2ccccc21	-2.9%	-2.2%	0.3	-13.6%
COc1ccc(C(=O)Nn2cnnc2)cc1OC	-3.9%	5.4%	1.6	6.3%
CC(c1ccccc1)n1c(-c2ccccc2F)n[nH]c1=S (centres undefined)	-9.1%	-6.1%	.	3.0%
O=c1c2ccccc2ncn1CCCSc1ccc(Cl)cc1	-18.4%	-0.2%	-2.6	10.2%

Record cards (already shown):
CC(c1ccccc1)n1c(-c2ccccc2F)n[nH]c1=S (centres undefined) reads miR-21 FLuc = -9.1%; Rango-impB inh = -6.1%; GLA inh pH 4.5 = .; Rango release inh = 3.0%
CC(C)NS(=O)(=O)c1ccc(OCC(=O)N2CCCC2)cc1 reads miR-21 FLuc = -6.8%; Rango-impB inh = 2.3%; GLA inh pH 4.5 = -0.4; Rango release inh = -13.9%

Next section:
SMILES	miR-21 FLuc	Rango-impB inh	GLA inh pH 4.5	Rango release inh
C[C@H](CO)N1C[C@H](C)[C@@H](CN(C)CC2CCCCC2)Oc2c(NC(=O)C3CC3)cccc2C1=O	.	-1.2%	.	-5.9%
Cc1ccc(-n2nc(C(=O)N/N=C/c3cccc(C(F)(F)F)c3)c3ccccc3c2=O)cc1C	-1.3%	-1.4%	11.9	6.1%
CCCCn1c(N2CCCC2)nc2c1c(=O)[nH]c(=O)n2C	-3.3%	2.1%	.	1.5%
COc1ccc(CCNC(=O)CC(C)(C)CC2=NS(=O)(=O)c3ccccc3N2)cc1OC	-8.9%	0.1%	.	-1.5%
CC(=O)Nc1sc2c(c1-c1nc3ccccc3s1)CCN(C(C)C)C2	?	?	-15.0	?
Cc1nn(S(=O)(=O)c2cccs2)c(C)c1Sc1ccc([N+](=O)[O-])cc1	22.8%	3.4%	-0.7	2.3%
CCCn1cc(CN2CCC(N3CCC(C(=O)N4CCOCC4)CC3)CC2)c(C)n1	-0.4%	-0.3%	-9.4	6.0%
COc1ccc(-n2cnc(=S)[nH]c2=S)cc1	.	-0.2%	.	10.2%
NC(=O)c1ccc(NC(=O)COC(=O)c2ccc3c(c2)OCCO3)cc1	-4.8%	?	5.5	?
O=C(c1ccccc1)C(Nc1cccc([N+](=O)[O-])c1)c1ccccc1 (centres undefined)	.	2.7%	.	?
C[N+](C)(C)CCCN(Cc1ccc2c(c1)OCO2)C(=O)NC1CCCCC1	-5.4%	6.2%	5.8	-11.1%
C[C@@H](NC(=O)C1(c2ccccc2)CCN(C(=O)OC(C)(C)C)CC1)C(=O)N[C@@H](Cc1ccccc1)C(=O)O	-3.7%	?	.	-8.6%
CC(C)OCCCn1c(=NC(=O)c2ccncc2)c(C#N)cc2c(=O)n3ccccc3nc21	-3.3%	?	0.0	?
S=C(NCCCn1ccnc1)Nc1ccc(Cl)cc1Cl	-1.7%	3.5%	10.9	4.1%
CSc1ccc(CNc2cccc3ccccc23)cc1	8.4%	1.7%	5.9	-9.8%
Cc1ccc(NC2=NC(c3ccc(O)cc3)n3c(nc(C)cc3=O)N2)cc1 (centres undefined)	-7.5%	-0.7%	-2.6	0.0%
Cc1cccc(N2CCN(S(=O)(=O)c3c(C)[nH]c(C)c3C(=O)N3CCCC3)CC2)c1C	-0.1%	-0.3%	.	4.9%
CCOC(=O)[C@@H]1[C@H]2COc3ccccc3[C@H]2N2C(=O)N(c3cccc(Cl)c3)C(=O)[C@]12C	.	3.5%	.	5.5%
CN1C(=O)N(CC(=O)N2CCN(S(=O)(=O)Cc3ccccc3)CC2)C(=O)C12CCCCC2	.	-5.6%	.	9.4%
Nc1cc(-c2cccc([N+](=O)[O-])c2)[nH]n1	-11.9%	-1.1%	1.5	2.2%
COc1ccc(C(=O)NCC(=O)N2CCN(C(=O)c3ccco3)CC2)cc1OC	.	0.7%	.	-8.6%
COc1ccc(NC(=O)c2cccc3c2C(=O)c2ccc(-c4ccc(F)cc4OCc4ccccc4)cc2S3(=O)=O)cc1	.	1.2%	.	-11.1%
Cc1ccc(-c2cc(C(=O)OCC(=O)N(C)C3CCS(=O)(=O)C3)c3ccccc3n2)o1 (centres undefined)	1.2%	?	-5.4	?
O=C(CC(=O)c1ccccc1)Nc1cc([N+](=O)[O-])ccc1Cl	-13.0%	0.7%	.	16.6%
CCCc1sc(N/N=C/c2ccccn2)nc1-c1ccc(Br)cc1	-4.3%	-0.1%	-1.4	-1.0%
COc1ccc2c(c1)[C@H]1[C@H](CO2)[C@H](c2ccccc2)[C@]2(C)C(=O)Nc3ccc(Cl)cc3C(=O)N12	.	-5.6%	.	0.4%
CN(CC(=O)Nc1ccc(Cl)c(C(F)(F)F)c1)C(=O)c1ccc(OCC2CCCO2)cc1 (centres undefined)	.	0.0%	.	3.5%
NC(=O)c1ccsc1NC(=O)CSc1nncs1	.	0.6%	.	-8.1%
COc1ccccc1CNC(=O)CSc1ccc(-c2ccncc2)nn1	-7.0%	3.5%	-5.4	18.3%
CC(=O)Nc1ccc(S(=O)(=O)Nc2nc(C)nc3sc(C)c(C)c23)cc1	.	-6.3%	.	-6.0%
CN1/C(=C\C(=O)Nc2cccc(Cl)c2)C(C)(C)c2ccccc21	-6.3%	0.0%	-3.7	-3.3%
COc1ccc(/C(C)=N/NC(=O)c2cc(C)[nH]n2)c(OC)c1	1.7%	0.5%	.	13.5%

Some of these compounds in order of heavy-atom count, smallest number first:
SMILES	miR-21 FLuc	Rango-impB inh	GLA inh pH 4.5	Rango release inh
COc1ccc(C(=O)Nn2cnnc2)cc1OC	-3.9%	5.4%	1.6	6.3%
O=C(Cc1ccccc1)Nn1cnc2ccccc21	-2.9%	-2.2%	0.3	-13.6%
O=c1c2ccccc2ncn1CCCSc1ccc(Cl)cc1	-18.4%	-0.2%	-2.6	10.2%
CC(=O)Nc1ccc(S(=O)(=O)N(C)CC(=O)OCC(=O)NC(C)C23CC4CC(CC(C4)C2)C3)cc1 (centres undefined)	-25.6%	-1.2%	-1.7	-2.3%
